# Tg IFNy HTS – inhibitors of Toxoplasma gondii growth with IFN-gamma; Toxoplasma gondii growth in IFN-gamma-treated host cells; active compounds read low; reference of the scale not given here; activity change, negative = inhibition, %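 (about 20 µM by stock and volumes)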; 3.8% of 69,000 active; AID 1259416;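 active means below -70%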;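 further: host cells are HeLa cells infected with Toxoplasma gondii; parasite growth read as luciferase light; one replicate is shown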
# * = called active by the depositor; i = inactive; & = joins results of further samples.
SMILES,Tg IFNy HTS
CC1CCN(S(=O)(=O)c2ccc3c(c2)CCC(=O)N3CC(=O)NCC2CCCO2)CC1 (stereo not given),34.8
Cc1ccc(C(=O)N2N=C3c4ccccc4S(=O)(=O)N3C2N2CCCCC2)cc1 (stereo not given),-7.3
O=C(c1ccc(F)cc1)N1CC(=O)N2[C@@H](CO)[C@@H](c3ccc(C#CCC4CCCC4)cc3)[C@@H]2C1,-40.2
CCNC(=O)NCC1CCN(Cc2cc(F)ccc2OC)C1 (stereo not given),3.9
CCc1cc2c(=O)n(CC(=O)NC(C)c3nc4ccccc4n3C(C)C)cnc2s1 (stereo not given),25.0
COc1ccc2c3c(n(C)c2c1)[C@H](CO)N(Cc1ccccc1)CC31CN(C(=O)c2ccccc2F)C1,0.5
C[C@H]1CN([C@@H](C)CO)C(=O)CCCn2nncc2CO[C@@H]1CN(C)Cc1ccc2c(c1)OCCN2C,88.9
Cc1nc([C@H]2C[C@@H]3CCN(C(=O)c4cnoc4C)C[C@@H]3O2)n[nH]1,3.2
CCN1c2ccccc2C(=O)NC12CCN(C(=O)NCc1ccc(C)cc1)CC2,52.1
CCCN(C(=O)c1ccc(-n2ccnc2)cc1)C1CCCC1,2.3
c1ccc2c(c1)CC/C2=N\NC1=NCCN1,44.2
CC(C)CN1CCn2c(COCc3cccnc3)nnc2C1,-7.0
COc1ccc(C#Cc2cccc(-c3nc(C(=O)Nc4ccc(-c5ccccc5)cc4)cc4c3[C@@H](CCO)N(S(=O)C(C)(C)C)C4)c2)cc1OC (stereo not given in full),-71.2*
COCc1cnc2n1CCN(c1cc(OC)ncn1)C2C (stereo not given),9.0
Cc1ccc(OCC(=O)N2CCC3(CC2)COc2ccccc2S(=O)(=O)N(C)C3)cc1,-4.5
COc1ccc2[nH]c(C)c(-c3csc(NC(=O)c4cncc(O)c4)n3)c2c1,20.8
Cn1c(=O)cc(NCCc2ccccc2)[nH]c1=O,-7.3
Cc1ccc2cc(C)c3nn(CCNC(=O)c4c(-c5cccnc5)noc4C)c(=O)n3c2c1,-3.1
COCC(=O)N1[C@H](CO)[C@H](c2ccc(C#CCC3CCCC3)cc2)[C@@H]1C#N,-27.2
COc1ccc(-c2nc(C)c(CCNC(=O)C3CCCC3)s2)cc1,i
COc1ccc(S(=O)(=O)Nc2ccc3c(c2)C(=O)N([C@H](C)CO)C[C@H](C)[C@@H](CN(C)C(=O)Nc2c(C)noc2C)OCCCC[C@@H](C)O3)cc1,4.6
COc1ccc2c(c1)NC1(CCN(S(=O)(=O)c3ccc(C)c(C)c3)CC1)c1cccn1-2,12.3
CCOc1ccccc1NC(=O)C(=O)NCCc1sc(-c2cccc(F)c2)nc1C,28.2
CCS(=O)(=O)N1CC2(C1)CN(S(=O)(=O)c1cccc(OC)c1)[C@@H](CO)c1[nH]c3cc(OC)ccc3c12,23.5
COc1ccc(C(C#N)N2CCCCCC2)cc1OC (stereo not given),-35.8
COc1ccccc1-c1nc(Cn2nnc(C(=O)Nc3ccc(C)c(F)c3)c2C)c(C)o1,-13.0
O=C(NC1CC1)C1CNCCN1C(=O)c1cc(=O)nc2sccn12 (stereo not given),5.2
C1=CCC(c2cn(Cc3nccn3Cc3ccccc3)nn2)CC1 (stereo not given),53.2
Cc1nc(CC(=O)N2CCCC2c2nonc2C)cs1 (stereo not given),-41.7
CCCC(=O)Nc1ccc2c(c1)OC[C@@H](C)NC[C@H](C)[C@@H](OC)CN(C)C2=O,-4.1
O=C(CSc1nnc(Cc2ccccc2)o1)N1CCOCC1,14.1
CCN1CCC2(CC1)OC(=O)C(C)=C2C(=O)Nc1ccc2c(c1)OCO2,124.4
CCn1c(CC2CCN(Cc3ccc(C4CCCCO4)o3)CC2)n[nH]c1=O (stereo not given),103.5
O=S(=O)(NC1Cc2ccccc2C1)c1cccc(Cl)c1,-10.7
CO[C@@H](CN(C)C(=O)c1cnccn1)[C@H](C)CN([C@H](C)CO)S(=O)(=O)c1ccccc1,54.3
Cc1ccccc1-c1nc(CN(C)S(=O)(=O)c2ccc(Cl)cc2)c(C)o1,15.9
CC(C)c1cc(C(=O)N2CCC(n3cc(-c4ccccn4)nn3)CC2)n(C)n1,-29.5
COc1ccccc1CNC1=NCCNC12CCN(S(=O)(=O)c1ccc(Cl)s1)CC2,-4.3
CCN(CC)C(=O)c1cc(C)nc2c1c(=O)n(Cc1nc(-c3ccc(OC)cc3)oc1C)c(=O)n2C,-8.0
Cc1cnn(Cc2nc(-c3ccc(NC(=O)c4ccc(F)cc4F)cc3)oc2C)c1,-3.9
COc1ccc(CN2CCC(OCc3cccnc3)CC2)c(F)c1,2.1
CCOC(=O)c1cc(C2CC2)nc2c1c(=O)n(Cc1nc(-c3cccc(Cl)c3)oc1C)c(=O)n2C,-43.3
O=C(c1ccccc1-n1cncn1)N1CCCC(Cn2ccnc2)C1 (stereo not given),-4.1
Cc1nccc(-c2ccccc2)c1C(=O)N1CCNCC1C(=O)NC1CC1 (stereo not given),5.0
CCNC(=O)C1CCN(C(=O)CSCc2ccccc2Cl)C1 (stereo not given),11.0
Cc1nn(C)c(C)c1NC(=O)c1cccc(CN(C)Cc2ccno2)c1,-3.9
C[C@@H](C1=C(CCN(C)C)Cc2ccccc21)c1ccccn1,12.4&-12.8
O=C(c1nc2sccn2c1CN1CCN(Cc2ccccc2)CC1)N1CCCCCCC1,-8.8
CCN(CC)C(=O)C1Cn2ccnc2C2(CCN(Cc3ccc(C)s3)CC2)O1 (stereo not given),2.7
CCn1c(SCc2nc(-c3cccc(C)c3)oc2C)nc(=O)c2c(C)cc(C)nc21,i

# In the list so far, these contain a cyano group.
SMILES,Tg IFNy HTS
COCC(=O)N1[C@H](CO)[C@H](c2ccc(C#CCC3CCCC3)cc2)[C@@H]1C#N,-27.2
COc1ccc(C(C#N)N2CCCCCC2)cc1OC (stereo not given),-35.8

# Further structures:
SMILES,Tg IFNy HTS
Cc1cc2c(cc1-c1nccn1-c1ccc3cn[nH]c3c1)OCO2,-81.1*
Cc1oc2c(C)c3oc(=O)c4c(c3cc2c1C)CCCC4,11.5
Cc1ccc(C(=O)Nc2ccc(Oc3cc4cnn(C)c4cc3-c3cn[nH]c3)c(F)c2)c(=O)n1-c1ccc(F)cc1,-73.6*
CCCN(CC)C(=O)c1ncn2c1CN(CC(=O)N(C)C)S(=O)(=O)c1ccccc1-2,131.6
CCN1CC[C@@]2(CN(S(=O)(=O)C3CC3)C[C@H]2c2ccccc2)C1=O,-16.3
C[C@H](CO)N1C[C@H](C)[C@H](CN(C)S(=O)(=O)c2ccccc2F)Oc2ncc(/C=C/c3ccccc3)cc2C1=O,-56.7
COc1ccc(NC(=O)C(=O)NCCc2sc(-c3ccccc3)nc2C)cc1OC,222.2
C[C@@H]1CCCCO[C@@H](CN(C)S(=O)(=O)c2cn(C)cn2)[C@@H](C)CN([C@@H](C)CO)C(=O)c2cc(N(C)C)ccc2O1,126.3
O=C(C1CCOC1)N1CCc2ncnc(-c3cccc(F)c3)c2CC1 (stereo not given),-36.1
CCC[C@H]1C[C@H]1C(=O)N1CCOc2c(O)cc(-c3cccc(Cl)c3)cc2C1,-67.9

# In the list so far, six contain a Cl atom.
SMILES,Tg IFNy HTS
O=S(=O)(NC1Cc2ccccc2C1)c1cccc(Cl)c1,-10.7
Cc1ccccc1-c1nc(CN(C)S(=O)(=O)c2ccc(Cl)cc2)c(C)o1,15.9
COc1ccccc1CNC1=NCCNC12CCN(S(=O)(=O)c1ccc(Cl)s1)CC2,-4.3
CCOC(=O)c1cc(C2CC2)nc2c1c(=O)n(Cc1nc(-c3cccc(Cl)c3)oc1C)c(=O)n2C,-43.3
CCNC(=O)C1CCN(C(=O)CSCc2ccccc2Cl)C1 (stereo not given),11.0
CCC[C@H]1C[C@H]1C(=O)N1CCOc2c(O)cc(-c3cccc(Cl)c3)cc2C1,-67.9

# The list goes on:
SMILES,Tg IFNy HTS
O=S(=O)(c1cc2ccccc2o1)N1CC(c2ccccn2)C1,-43.6
CC(C)c1ccc(CN2CCCC(O)(CN3CCCNC(=O)C3)C2=O)cc1 (stereo not given),-8.5
CC(=O)NC1(c2ccc(F)cc2)CCN(CC(O)c2ccc3c(c2)OCCCO3)CC1 (stereo not given),75.8
O=C(NCC1Cn2nnc(-c3ccccc3)c2CO1)c1ccsc1 (stereo not given),-8.8
O=S(=O)(NCc1ccc(-c2cccs2)cc1)c1ccc2c(c1)OCCCO2,10.5
CC(C)c1cc(C(=O)N2CCCn3nc(C(=O)NC4CC4)cc3C2)on1,14.4
Cc1oc(C2CCN(C(=O)c3ccc(C#N)cc3)CC2)nc1C(=O)N1CCSCC1,-29.7
COC(=O)c1cc(-n2cccc2)ccc1N1CCOCC1,15.9
CCC(CC)n1ncc(C)c1NC(=O)CCc1c(C)[nH]c2ccccc2c1=O,-16.6
Cc1ccc(CN2CC[C@H]3[C@H]2CCC(=O)N3Cc2csc(C)n2)o1,-0.2
NC(=O)N1CCCn2c(nc(CNc3ccccn3)cc2=O)C1,10.0
CN(C)C(=O)CO[C@H]1CN(Cc2ccc3c(c2)OCO3)[C@H]2COC[C@@H]12,5.4
CCOC(=O)c1cccnc1N1CCCC(N2CCOCC2)C1 (stereo not given),-0.4
CN1C(=O)c2cc(NC(=O)Cc3cccs3)ccc2OC[C@@H]2O[C@H](CC(=O)NCCCN3CCOCC3)CC[C@H]21,-19.9
CN1CCC(N2CCN(C(=O)C3CCN(c4cnc5nccnc5c4)CC3)CC2)CC1,36.7
O=c1cc(-c2cc(O)c(O)c(O)c2)oc2cc(O)cc(O)c12,-46.2
O=c1c(-c2ccc(Br)cc2)c2sc3ccccc3nc-2c2ccccc12,15.9
CC(C)C1Oc2cc3oc(=O)ccc3cc2/C1=N\NC(N)=S (stereo not given),8.8
Cc1nc(N2CCC(CO)(Cc3ccccc3)CC2)cc(-n2cccn2)n1,-43.0
O=C(NCCSCc1ccc2nonc2c1)c1ccc(Cl)cc1Cl,-30.1

# The last four compounds of the section above are carried over, then new ones follow.
SMILES,Tg IFNy HTS
O=c1c(-c2ccc(Br)cc2)c2sc3ccccc3nc-2c2ccccc12,15.9
CC(C)C1Oc2cc3oc(=O)ccc3cc2/C1=N\NC(N)=S (stereo not given),8.8
Cc1nc(N2CCC(CO)(Cc3ccccc3)CC2)cc(-n2cccn2)n1,-43.0
O=C(NCCSCc1ccc2nonc2c1)c1ccc(Cl)cc1Cl,-30.1
CCS(=O)(=O)N1CCOCC2(CCN(Cc3nccn3C)C2)C1 (stereo not given),-1.1
O=C(C[C@@H]1CC[C@@H]2[C@H](COC[C@H](O)CN2C(=O)c2ccncc2)O1)Nc1ccc(-c2ccccc2)cc1,0.5
CCN1CCC2(CC1)CC(CC(N)=O)c1ccc(F)cc12 (stereo not given),285.0
COc1ccc(NC(=O)Cn2c(=O)cc(C(=O)N3CCOCC3)c3ccccc32)cc1Cl,7.4
CCN(CCN(C)C)c1ncc(-c2cnccn2)c(-c2cccs2)n1,5.2
O=C(c1ccc(Br)o1)N1CCC2(CC1)Nc1ccccc1-n1cccc12,-2.9
Cc1cnc(NCCCC2CCOC2)nc1N(C)C (stereo not given),8.0
CN1CCN(c2ccc3ccc(C(=O)Nc4cccc(F)c4)cn23)CC1,-0.9
C[C@@H]1CN([C@H](C)CO)C(=O)Cc2cc(NC(=O)Cn3cnnn3)ccc2O[C@H]1CN(C)S(=O)(=O)c1ccc(Cl)cc1,8.5
Cc1nc(Cn2cnc3c2c(=O)n(C)c(=O)n3C)no1,-11.0
Cc1noc(C)c1NC(=O)Nc1ccc2c(c1)CC(=O)N([C@@H](C)CO)C[C@@H](C)[C@H](CN(C)Cc1ccc(C(F)(F)F)cc1)O2,-42.9
COc1cccc(NC(=O)C[C@@H]2CC[C@H]3[C@H](COc4ccc(NC(=O)C5CC5)cc4C(=O)N3C)O2)c1,-3.9
CC(CC1=CCCN(C)C1)NC(=O)c1ccc2c(c1)OC(F)(F)O2 (stereo not given),1.7
Cc1cc2nc(C3CCCCN3C(=O)c3c(C)noc3C)[nH]c2cc1C (stereo not given),-46.4
COc1ccc(CC(=O)NCCc2sc(-c3ccc(F)cc3)nc2C)cc1OC,-35.4
CN1CCOCC2(CCCN(C(=O)c3cn(C)cn3)C2)C1 (stereo not given),19.6
CN1C(=O)c2cc(NC(=O)c3cnccn3)ccc2OC[C@H]2O[C@@H](CC(=O)NCC3CCCCC3)CC[C@@H]21,7.0
CCCNC(=O)N1C[C@@H]2[C@H](c3ccccc31)[C@@H](CO)N2C(=O)Nc1ccccc1F,-1.4
Cc1cc(C(=O)Nc2cccc3c2O[C@H](CN(C)C)[C@@H](C)CN([C@@H](C)CO)C3=O)n(C)n1,-9.8
Cc1noc(C)c1S(=O)(=O)N(C)C[C@@H]1OCCCC[C@H](C)Oc2ccc(NS(=O)(=O)c3cn(C)cn3)cc2C(=O)N([C@H](C)CO)C[C@@H]1C,-30.8

# 2 entries from above, with bars between the fields:
SMILES | Tg IFNy HTS
CC(CC1=CCCN(C)C1)NC(=O)c1ccc2c(c1)OC(F)(F)O2 (stereo not given) | 1.7
Cc1cc2nc(C3CCCCN3C(=O)c3c(C)noc3C)[nH]c2cc1C (stereo not given) | -46.4

# Remaining list, next part.
SMILES,Tg IFNy HTS
O=C(CCCOc1ccc(Cl)cc1Cl)NCc1ccccn1,13.4
Cc1ccc2c(c1C)-n1cccc1C1(CCN(C(=O)c3ccc(F)cc3)CC1)N2,-10.1
COc1ccc(-c2cn3c(-c4ccc(C)o4)c(-c4ccc(C)o4)nnc3n2)cc1,46.8
COc1ccccc1N(Cc1nc(-c2ccccc2)oc1C)S(=O)(=O)c1ccccc1,-45.0
O=C1CCCN1C[C@@H]1CCC[C@]2(CCN(Cc3ccccc3F)C2)O1,-7.1
Cc1cc(C)n(CCNC2CCN(c3ccc4c(c3)OCO4)CC2)c(=O)n1,9.4
Cc1nccn1CCCC(=O)N1Cc2cnc(CC(C)C)nc2C1,6.7
O=C(N[C@H]1C=C[C@@H](CC(=O)N2CCC(Cc3ccccc3)CC2)O[C@@H]1CO)c1cnccn1,-35.4
Cc1ccccc1-c1ncc(CN2CC3CCCC(C2)C3(O)c2nccn2C)cn1 (stereo not given),11.8
Cn1cc(Cl)c(-c2nc(-c3ccc(Cl)cc3)cs2)n1,47.8
Cc1ccc(CN2CCc3ncnc(N4CCCC4)c3CC2)o1,-9.3

# Not all compounds are listed (hit frequency here may not be typical).
